# Screening results deposited in PubChem BioAssay by several laboratories.
# UUG fidelity = modulators of start codon recognition fidelity in yeast; activity score, % at 18.7 µM; 350,000 tested, 0.13% active; S. cerevisiae UUG-firefly luciferase reporter, luminescence/redox ratio;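 active = replicate mean at a twofold rise or more, about +100% in these data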;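 also: firefly luciferase made from a UUG start codon reports start codon fidelity; reporter light over untreated wells divided by growth signal over untreated wells; some hits fall short of that in this replicate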
# eIF4H inh = inhibitors of RNA binding by human eIF4H | eIF4H fluorescence polarization binding assay | Q15056 | AID 2012 | 290,000 tested, 0.94% active | inhibition, % at 35 µM;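 active = 50% or more with normal probe brightness, or confirmed in later tests; inconclusive = above 50% with abnormal brightness, or retests that disagree; inactive = below 50% or failed in later tests; about a fifth of its hits are not listed in these tables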;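 also: calls also rest on retests at 20 µM and on dose response follow-up; 0% = protein and probe with vehicle and 100% = probe without protein; strong numbers were not always called active; many hits fall short of the cut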
# PABP polyA inh = PABP-poly(A) binding inhibition; P11940; PABP-poly(A) RNA binding, fluorescence polarization; inhibition, % at 35 µM; 290,000 tested, 1% active;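 active = 50% or more with normal probe brightness, or confirmed in later tests; inconclusive = above 50% with abnormal brightness, or retests that disagree; inactive = below 50% or failed in later tests; about a fifth of its hits are not listed in these tables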;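 also: calls also rest on retests at 20 µM and on dose response follow-up; controls were probe without protein and protein plus probe with vehicle; some compounds called inactive have numbers as strong as hits; many hits fall short of the cut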
# Target sequence (P11940 whole entry, looked up): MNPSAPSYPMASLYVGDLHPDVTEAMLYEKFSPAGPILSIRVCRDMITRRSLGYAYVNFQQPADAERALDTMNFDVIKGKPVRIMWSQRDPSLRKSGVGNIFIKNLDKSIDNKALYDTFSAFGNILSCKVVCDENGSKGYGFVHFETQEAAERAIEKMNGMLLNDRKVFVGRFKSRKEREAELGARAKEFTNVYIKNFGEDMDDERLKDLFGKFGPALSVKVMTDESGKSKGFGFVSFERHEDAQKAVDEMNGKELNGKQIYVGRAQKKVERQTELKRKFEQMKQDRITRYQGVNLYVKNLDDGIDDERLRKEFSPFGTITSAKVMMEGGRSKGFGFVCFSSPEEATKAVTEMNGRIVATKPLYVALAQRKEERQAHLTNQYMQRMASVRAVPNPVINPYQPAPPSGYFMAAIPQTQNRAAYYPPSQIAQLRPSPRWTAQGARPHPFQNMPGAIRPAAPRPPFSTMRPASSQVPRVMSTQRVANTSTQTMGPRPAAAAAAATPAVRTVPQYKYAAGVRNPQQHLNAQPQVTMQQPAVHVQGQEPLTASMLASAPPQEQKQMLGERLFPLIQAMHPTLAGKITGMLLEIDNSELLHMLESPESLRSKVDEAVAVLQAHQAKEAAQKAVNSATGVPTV
# CSC inhib = cancer stem cell inhibition; 300,000 tested, 1.1% active; AID 2717; inhibition, % at 7.5 µM; cancer stem cell-like cells viability, luminescence;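 active = mean at 75% or more and at least half the replicates too; inconclusive = mean and replicates disagree; tested in HMLE shEcad cells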;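 also: 0% = median of negative and 100% = median of positive control wells; the first replicate is given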
# Env fusion inh = blocks HIV Env-driven cell-cell fusion | AID 651610 | HeLa-JRFL Env/CEM21 cell fusion, luciferase | 360,000 tested, 1.1% active | inhibition, % at 12.3 µM;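 active = mean replicate inhibition score of at least 50 and every replicate individually at or above 50; inconclusive = only one of the two criteria met; inactive = mean below 50 and not all replicates reaching 50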;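 also: 0% = plate neutral controls and 100% = maraviroc near 300 nM; one replicate is shown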
# MT1-MMP act inh = blocks activation of human MT1-MMP; P50281; 360,000 tested, 0.061% active; GFP/RFP ratio change, % at 20 µM; HT1080 RFP-PRO-GFP cells, GFP/RFP ratio fluorescence, overnight; percent of plate control window, DMSO zero;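 active = GFP/RFP ratio change of at least 30% with cell ATP level not reduced by more than half and red fluorescence within 50% of control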; also: strong numbers were not always called active
#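 Compound: 20 µM single dose, 1% DMSO / System: HT1080 RFP-PRO-GFP cells / Controls: DMSO and RFP-L50D-GFP cell wells / Read-out basis: GFP/RFP fluorescence ratio / Schedule: overnight compound exposure at 37 °C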
# Rce1 inhib = blocks yeast Ras-converting enzyme; yeast membranes, quenched prenylated peptide cleavage fluorescence; calls only; 290,000 tested, 0.27% active;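 active = fall in fluorescence gain of 50% or more versus controls, with final raw signal at or below 3038400; inconclusive = same 50% fall but final raw signal above 3038400; inactive = fall in fluorescence gain under 50%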;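 also: plate controls were neutral control wells for no effect and wells lacking membranes for full effect; tested at 10 µM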
# Target sequence (Q03530 whole entry, looked up): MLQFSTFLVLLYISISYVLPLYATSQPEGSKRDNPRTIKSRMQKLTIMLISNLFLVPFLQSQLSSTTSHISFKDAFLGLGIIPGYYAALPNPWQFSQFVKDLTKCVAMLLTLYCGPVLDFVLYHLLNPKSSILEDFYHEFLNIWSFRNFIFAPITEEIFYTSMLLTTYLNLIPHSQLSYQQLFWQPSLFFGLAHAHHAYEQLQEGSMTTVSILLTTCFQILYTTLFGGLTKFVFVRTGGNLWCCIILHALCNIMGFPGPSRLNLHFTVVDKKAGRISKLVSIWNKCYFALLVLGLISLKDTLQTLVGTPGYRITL
# MT1-MMP act inh RFP = further read-out of MT1-MMP act inh, marked with its call; RFP signal change, %; measured here: RFP expression control read;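 0 = vehicle wells; hits needed this value within 50% of zero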
# * = called active by the depositor; i = inactive; u = inconclusive; x = no result given.
SMILES,UUG fidelity,eIF4H inh,PABP polyA inh,CSC inhib,Env fusion inh,MT1-MMP act inh,MT1-MMP act inh RFP,Rce1 inhib
CC1CCc2sc(C(=O)OCC(=O)NC(N)=O)cc2C1 (stereo unspecified),-9,6,5,-20,3,1,1,i
Cc1ccc(C2Oc3ccccc3C3=C2C(c2cccs2)n2ncnc2N3)cc1 (stereo unspecified),-18,-9,-12,61,102*,-41,-30,i
COC(=O)C[C@H]1C[C@H]2c3cc(NC(=O)C4CCOCC4)ccc3O[C@H]2[C@@H](CO)O1,-16,x,x,x,9,-1,4,x
CCN(CC(=O)Nc1ccc2c(c1)OCO2)S(=O)(=O)c1ccccc1,1,-6,5,-6,-8,6,6,i
O=C(NCc1ccccn1)c1ccc([N+](=O)[O-])cc1,x,0,4,x,1,-2,-2,i
CCCNC(=O)C(Cc1ccccc1)NC(=O)c1ccccn1 (stereo unspecified),-13,x,x,-19,-1,0,3,x
CCOC1=C2[C@H](c3ccc(C)cc3)N(S(=O)(=O)c3ccc(C)cc3)C[C@H]2n2c(=O)n(-c3ccccc3)c(=O)n2C1,-21,x,x,x,8,1,0,x
COc1cccc(OCC(=O)NNC(=O)C(=O)Nc2ccc(OC)cc2OC)c1,-2,-4,-5,2,6,0,1,i
Cc1cc(OCC(=O)Nc2ccc(S(=O)(=O)NC3=NCCCCC3)cc2)c(C(C)C)cc1Cl,-15,7,11,85*,14,-10,-12,i
COC(CNC(=O)CCc1c(C)nc2c(c(C)nn2-c2ccc(C)cc2)c1C)OC,-10,-4,6,-4,21,-3,-5,i
CN(C)N1C(N)=C(C#N)C(c2cccc(Cl)c2)C2=C1CCCC2=O (stereo unspecified),-3,9,11,-10,9,2,3,i
Cn1cc(CN2CCC(C(=O)NC(c3ccc(-c4ccccc4)cc3)c3cnccn3)CC2)c2ccccc21 (stereo unspecified),-1,x,x,x,-2,1,-5,x
Cc1[nH]nc(N)c1-c1ccccc1,x,6,8,-1,-2,-5,-3,i
O=C(CSc1nccc(=O)[nH]1)N1CCc2ccccc2C1,-26,-1,-12,9,x,4,8,i
CCOC(=O)C(C)Oc1nc(Oc2ccccc2)nc(N(C)C)n1 (stereo unspecified),-14,-8,-5,x,x,2,4,i
COc1ccc(N2CCN(C(=O)c3c(Cl)cnn3C)CC2)cc1,-10,-4,4,8,x,3,5,i
Cc1cc(NC(=O)CSc2nnc3ccccn23)no1,x,-6,5,-16,-6,-1,4,i
O=C(CN1C(=O)c2ccccc2S1(=O)=O)c1ccc(OC(F)F)cc1,-13,-1,7,12,x,-1,0,i
O=C(COc1ccccc1)N1CCc2ccccc21,x,6,17,-2,-27,0,1,i
O=C(NS(=O)(=O)Oc1ccccc1F)OC[C@@H]1CCCN2CCCCC12 (stereo partly specified),-6,-1,-3,x,-4,-2,-3,i

# Quoted at random: six compounds from above.
SMILES,UUG fidelity,eIF4H inh,PABP polyA inh,CSC inhib,Env fusion inh,MT1-MMP act inh,MT1-MMP act inh RFP,Rce1 inhib
Cc1[nH]nc(N)c1-c1ccccc1,x,6,8,-1,-2,-5,-3,i
COC(CNC(=O)CCc1c(C)nc2c(c(C)nn2-c2ccc(C)cc2)c1C)OC,-10,-4,6,-4,21,-3,-5,i
Cc1cc(OCC(=O)Nc2ccc(S(=O)(=O)NC3=NCCCCC3)cc2)c(C(C)C)cc1Cl,-15,7,11,85*,14,-10,-12,i
O=C(CN1C(=O)c2ccccc2S1(=O)=O)c1ccc(OC(F)F)cc1,-13,-1,7,12,x,-1,0,i
CN(C)N1C(N)=C(C#N)C(c2cccc(Cl)c2)C2=C1CCCC2=O (stereo unspecified),-3,9,11,-10,9,2,3,i
COc1ccc(N2CCN(C(=O)c3c(Cl)cnn3C)CC2)cc1,-10,-4,4,8,x,3,5,i

# The listing continues.
SMILES,UUG fidelity,eIF4H inh,PABP polyA inh,CSC inhib,Env fusion inh,MT1-MMP act inh,MT1-MMP act inh RFP,Rce1 inhib
O=C(N/N=C\c1cn[nH]c1-c1ccccc1)c1ccc([N+](=O)[O-])cc1,x,-1,1,-6,-5,5,3,i
COc1ccc(OCCn2cnc(Cl)c2Cl)cc1,x,-13,-2,x,-16,3,0,i
COc1cc(C(c2sc3nc(C)nn3c2O)N2CCOCC2)cc(OC)c1OC (stereo unspecified),2,8,-1,4,40,6,3,i
CN1CCN(C(=O)c2ccc(F)c(F)c2)CC1,-10,1,1,-6,12,-1,-1,i
CC(=O)Nc1cccc(NC(=O)c2cc(-c3cccnc3)nc3ccc(Br)cc23)c1,-4,7,13,33,x,-14,-10,i
O=C(O)/C=C/C(=O)NNc1ncnc2ccccc12,-21,-2,3,-9,2,1,5,i
CCCCNC(=O)c1cn(C)c2ccc(S(=O)(=O)N3CCCC3)cc2c1=O,-14,2,9,-4,4,-2,5,i
CCCCN(C)C(=O)c1nc2ccccn2c1CN(C)Cc1csc(C)n1,x,-11,-10,-20,-12,-2,0,i
Cc1cc(C(F)(F)F)c(C#N)c(Sc2ccccc2)n1,-5,-14,-6,-1,x,0,0,i
CN(Cc1ccccc1)C(=O)C1CCN(S(=O)(=O)c2ccc(-n3cnnn3)cc2)CC1,2,-10,9,x,22,2,-1,i
COc1ccccc1/C(C)=N/NC(=S)NCc1ccccc1,x,-1,-6,12,-6,4,1,i
CC(c1ccco1)N(C(=O)c1ccc(F)cc1)c1ccccn1 (stereo unspecified),-13,4,0,-1,0,3,4,i
CCOC(=O)C1CCN(CCC(=O)Nc2cc(C)ccc2C)CC1,-23,-3,-1,-9,7,0,0,i
CCNC(=O)NC(=O)C(C)OC(=O)c1oc2ccc(OCC)cc2c1C (stereo unspecified),2,-2,-2,16,-6,2,0,i
COCCN(CCOC)c1nc(-c2ccc(Cl)cc2)nc2ccccc12,-7,-9,11,5,33,-2,-9,x
CCOC(=O)N1CCC(NC(=O)C(C)n2c3ccccc3c3cnn(C)c(=O)c32)CC1 (stereo unspecified),3,-4,-6,x,x,-3,3,i
Cc1ccc(CNC(=O)c2cc(-c3ccccc3)n(Cc3cc(C)no3)n2)cc1,-22,x,x,-3,6,1,-2,x
CCc1nc2ccc(C(=O)N(C)CCCN(C)C)cn2c1N(CC)CCOC,-8,x,x,x,-1,8,7,x
COC(=O)C(CO)Nc1ncnc2onc(-c3ccc(F)cc3)c12 (stereo unspecified),-12,16,-2,2,4,0,5,i
Cc1onc(-c2ccccc2)c1C(=O)N/N=C/c1c[nH]c2ccccc12,-21,-7,-3,-8,-16,x,x,i
COCCN(C(=O)CSc1nnc(Nc2ccccc2F)s1)c1c(N)n(Cc2ccccc2)c(=O)[nH]c1=O,2,-9,4,-16,3,-2,-3,x
CC(C)NC(NC(=O)/C=C/c1ccccc1)C(Cl)(Cl)Cl (stereo unspecified),x,-5,0,x,1,0,0,i
COCc1nn2c(N)c(-c3ccccc3)cnc2c1-c1ccccc1,-14,4,15,11,-23,3,-4,x
CCOc1ccc(-c2nc3n(c(=O)c2C#N)CCCS3)cc1,-20,-12,-18,-12,x,8,8,i
CCOC(=O)c1csc(NC(=O)CSc2nnnn2-c2cccc(OC)c2)n1,-31,-6,33,-7,x,-1,-4,i
CCOC(=O)N1CCN(c2ccc(C(C)=O)cc2F)CC1,-13,-1,33,-15,-13,-1,-2,i
CCCCCOP(=O)(c1ccccc1)c1ccccc1,-11,3,20,-1,x,-6,-4,i
CCc1ccc(C(=O)Nc2nnn(CC)n2)cc1,-5,-9,-5,32,x,-6,-7,i
CCc1ccc2[nH]c(=O)c(CN(Cc3ccc(F)cc3)C(c3nnnn3CCN3CCOCC3)C(C)C)cc2c1 (stereo unspecified),6,0,1,22,x,-17,-6,i
CCOC(=O)c1c(NC(NC(C)=O)C(Cl)(Cl)Cl)sc2c1CCCC2 (stereo unspecified),x,-10,4,16,1,-7,-9,i
CC(C)CNC(=O)CSc1n[nH]c(=O)n1CCc1ccccc1,9,-3,-7,-6,8,5,5,i
COC(=O)c1c(NC(=O)c2ccccc2F)sc2c1C(C(=O)OC)CC2 (stereo unspecified),-5,0,9,0,-12,2,-7,i
Cc1ccc(C(=O)N/N=C\c2ccc(-c3ccc([N+](=O)[O-])cc3)o2)cn1,x,-4,2,1,7,-5,-2,i
Cc1c(Cl)cccc1NC(=S)NCc1ccc2c(c1)OCO2,x,-4,-12,-13,x,-1,1,i
Cc1ccc(S(=O)(=O)NC(=O)C2(C)CCN2C(=O)c2cccc(F)c2)cc1 (stereo unspecified),-30,x,x,x,-26,2,5,x
COc1cc(OC)c(C(=O)NCC(c2cccs2)N(C)C)cc1OC (stereo unspecified),x,-1,7,19,x,-1,-1,i
O=C(COc1ccccc1)NS(=O)(=O)c1ccc(Cl)cc1,-12,-7,7,3,2,3,4,i
O=C(O)c1ccc(NC2=C/C(=N/S(=O)(=O)c3ccccc3)c3ccccc3C2=O)cc1,x,9,22,x,u,-2,-32,x
CCCCOc1cccc(C(=O)NC(=S)Nc2cccc(C(F)(F)F)c2)c1,-18,4,2,30,x,1,5,i
Cc1ccccc1C(=O)N1CCC(C(=O)Nc2sccc2C(N)=O)CC1,-1,x,x,x,6,-1,-1,x
CC(C)C(C(=O)OCC(=O)c1ccc2c(c1)NC(=O)CO2)N1C(=O)c2ccccc2C1=O (stereo unspecified),-36,2,6,x,-25,1,-6,i
CCN(CC)C(=O)c1cc(S(=O)(=O)N2CCCCC2)c[nH]1,-24,-8,2,14,35,5,3,i
O=C(CNC(=O)c1ccc(Oc2ccccc2)cc1)OC1CCCCC1=O (stereo unspecified),6,-5,4,x,x,1,1,i
CN(C)CCCOC(=O)CCc1ccccc1,-14,7,0,-9,x,6,2,i
O=C(CNCC1CCCCC1)Nc1ccc(N2CCCCC2)cc1,x,-12,-13,-3,x,x,x,i
C=CCOc1ccc2ccccc2c1CNc1ncn[nH]1,1,-4,-16,3,6,-3,-4,i
COc1ccc(Cc2nnc(SCC(=O)Nc3ccc(C)cc3)n(N)c2=O)cc1,-21,x,x,-12,x,-1,-3,i
Cc1c(NC(=O)C(C)OC(=O)c2ccccc2O)c(=O)n(-c2ccccc2)n1C (stereo unspecified),-20,x,x,-18,-4,2,0,x
Cc1nn(Cc2nc(-c3cccs3)no2)c(C)c1Br,-6,1,-8,8,17,-1,3,i
COc1cc(NS(=O)(=O)c2ccc(C)cc2)ccc1-n1cnnn1,-11,-2,3,-1,u,3,4,i
CCOC(=O)c1ccc(NC(=O)C(=O)NCc2ccccn2)cc1,-25,0,-7,-13,21,7,-1,i
Cc1cccc(NC(=O)CSc2n[nH]c(-c3ccncc3)n2)c1,-15,7,9,3,-2,4,4,i
CC1(C(=O)NS(=O)(=O)C2CC2)CCCN(C(=O)c2ccccc2C(F)(F)F)C1 (stereo unspecified),-9,x,x,x,1,-1,5,x
C=C1CCN([C@@H](CC(C)C)C(=O)Nc2nc3ccc(Cl)cc3s2)S(=O)(=O)c2ccccc21,-11,x,x,102*,u,-20,-9,i
CC1=C(C(=O)OCc2ccccc2)C(/C=C/c2ccccc2)N2C(=O)CCSC2=N1 (stereo unspecified),-18,-1,-6,23,3,-1,-3,i
O=C1C(=O)N(Cc2cccnc2)C(c2ccccn2)/C1=C(/O)c1ccc(Br)cc1 (stereo unspecified),-2,2,4,-4,-24,3,9,i
COc1ccc(-c2csc(C(C)(O)c3cccc(F)c3)n2)cn1 (stereo unspecified),-1,x,x,x,17,8,-4,x
N#CC1=C(N)Oc2nc[nH]c(=O)c2C1c1cccs1 (stereo unspecified),x,-2,-2,-7,-2,0,4,i
O=C(CCl)NC1CCCc2ccccc21 (stereo unspecified),x,-7,0,4,0,-4,-3,i
